Source: PubChem
GLA inh pH 4.5: alpha-galactosidase A (human) inhibition, pH 4.5; purified enzyme, 4-MU-alpha-Gal fluorescence, pH 4.5; activity change, negative = inhibition, % at 105 µM; P06280; 230,000 tested, under 10 active; inconclusive = small, poorly fitted or top-dose-only inhibition, or a rising curve; inactive = flat fitted curve, though single readings scatter; no compound was filed as active;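 further: 0% = full activity with enzyme and -100% = basal without enzyme; dose as in the result columns while the protocol names 77 µM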
Rango complex inh: inhibitors of Rango-importin beta complex formation | AID 540263 | Potency, µM (titrated, usually from 92.2 µM), without a hit: at the highest dose inhibition of complex formation | 0.031% of 340,000 active | Rango CFP/YFP FRET sensor + importin beta, 45 min; active = rising FRET ratio curve, often small or poorly fitted; inconclusive = mostly compound fluorescence or quenching in the first reads; inactive = flat curves in all reads;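 further: potency means the concentration at half of the fitted maximal effect; 0% = DMSO wells and 100% = buffer wells lacking importin beta; nearly all actives have a fitted effect of over 15% in size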
Target sequence (Q14974 whole entry, looked up): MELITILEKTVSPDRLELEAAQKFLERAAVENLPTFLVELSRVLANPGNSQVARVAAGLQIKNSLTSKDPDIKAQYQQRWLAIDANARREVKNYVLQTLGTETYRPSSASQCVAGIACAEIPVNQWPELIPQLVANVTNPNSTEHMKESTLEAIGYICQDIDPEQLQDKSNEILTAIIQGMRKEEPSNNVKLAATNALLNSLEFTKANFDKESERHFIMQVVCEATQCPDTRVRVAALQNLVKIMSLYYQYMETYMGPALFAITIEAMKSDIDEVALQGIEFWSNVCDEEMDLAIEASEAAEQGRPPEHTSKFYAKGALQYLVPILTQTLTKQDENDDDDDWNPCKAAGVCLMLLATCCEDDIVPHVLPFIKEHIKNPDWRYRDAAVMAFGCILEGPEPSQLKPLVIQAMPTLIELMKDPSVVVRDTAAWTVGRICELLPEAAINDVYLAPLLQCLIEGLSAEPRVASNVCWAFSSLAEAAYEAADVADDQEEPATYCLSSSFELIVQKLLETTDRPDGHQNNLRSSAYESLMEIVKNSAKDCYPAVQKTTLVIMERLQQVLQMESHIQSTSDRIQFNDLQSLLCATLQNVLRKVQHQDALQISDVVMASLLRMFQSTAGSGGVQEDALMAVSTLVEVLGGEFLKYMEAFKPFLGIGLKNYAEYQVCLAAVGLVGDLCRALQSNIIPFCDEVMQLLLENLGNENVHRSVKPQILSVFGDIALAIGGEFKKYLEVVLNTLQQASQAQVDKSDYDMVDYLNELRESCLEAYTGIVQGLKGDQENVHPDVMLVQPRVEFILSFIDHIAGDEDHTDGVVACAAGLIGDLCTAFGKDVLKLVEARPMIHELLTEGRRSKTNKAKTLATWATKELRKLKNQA
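FRET biosensor (snurportin 1 IBB flanked by EYFP and cerulean), 50 nM, with compound 5 min, then 0.125 microM importin beta in PBS, 1 mM DTT, 0.02% Tween-20, 0.1% BSA. CFP/YFP ratio read after 45 min at room temperature; pre-read flags interference.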
Rango dissoc inh: prevents RanGTP from dissociating the Rango-importin beta complex; O95149+P62826; Biochemical FRET Rango-importin beta, RanGTP-induced dissociation; Potency, µM (titrated, usually from 46.1 µM), without a hit: at the highest dose activity change, negative = inhibition; 0.071% of 340,000 active; active means falling FRET ratio curve, often poorly fitted, with flat reads before Ran was added; inconclusive means other falling curves, or compound fluorescence or quenching; inactive means flat or rising ratio curve;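 further: potency means the concentration at half of the fitted maximal effect; % of control where 0% means no effect; nearly all actives have a fitted effect of over 45% in size; -100% = wells without RanGTP and RCC1; the record marks most hits as doubtful in a second field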
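Compounds sat 5 min at room temperature with 0.1 uM Rango biosensor plus 0.25 uM importin beta, then FRET pre-read. RanGTP-RCC1 (0.6 uM Ran, 2mM GTP, 0.2 uM RCC1) added for 45 min, and the CFP/YFP post-read measured blocked complex dissociation.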
miR-21 reporter: miR-21 reporter, rising signal. HeLa miR-21 FLuc reporter, luciferase, 48 h. Potency, µM (top dose mostly 38.3 µM), inactives show at the top dose reporter change, positive = more light. 340,000 tested, under 10 active. AID 2288; active = well fitted rising curve with a large enough effect; inconclusive = small, poorly fitted or top-dose-only effect; inactive = no such curve, though single readings can be large or run the other way;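 further: % of control where 0% means no effect; miR-21 action dims this reporter so a rising signal means less miR-21 action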
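HeLa cells stably expressing CMV-driven firefly luciferase with a downstream miR-21 binding sequence, endogenously expressing miR-21, were treated with titrations (up to about 40uM final) for 48 hours at 37 degree Celsius. Luciferase luminescence was read after lysis.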
* hit, by the source's call; u = inconclusive; x = no result given.

Results follow in this order: GLA inh pH 4.5	Rango complex inh	Rango dissoc inh	miR-21 reporter
> Cc1ccc(Cl)cc1N1CCN(C2CCCCC2NS(=O)(=O)c2ccccc2)CC1 (stereo unspecified)
    x	-0.1%	14%	0%
> CCCCN(C)C(=O)Cn1c(=O)oc2cc(S(=O)(=O)N3CC(C)CC(C)C3)ccc21 (stereo unspecified)
    -7	-0.2%	-11%	-2%
> COCCNC(=S)N(Cc1cc2cc(C)ccc2n2nnnc12)C1CCCC1
    -6	-1.8%	-15%	4%
> NS(=O)(=O)c1ccc(CNC(=O)/C=C/c2ccco2)cc1
    2	u	-4%	-1%
> Cc1ccc(CNC(=O)Cc2noc3ccccc23)cc1
    3	0.0%	9%	-43%
> C=CCN(Cc1cccc(OC)c1OC)S(=O)(=O)N(C)C
    -4	-4.1%	10%	1%
> O=C(CCc1ccc(S(=O)(=O)N2CCOCC2)cc1)Nc1nccs1
    -5	-0.5%	2%	1%
> O=C(COC(=O)c1c(Cl)cccc1Cl)Nc1cc(Cl)ccc1Oc1ccccc1
    -3	-1.7%	0%	16%
> CC(=O)N1CCN(c2ccc(NC(=O)c3ccc4c(c3)OCCO4)cc2Cl)CC1
    3	-0.9%	-14%	4%
> O=[N+]([O-])c1ccc(C=Nc2ccc(Cl)cc2Cl)s1
    1	-0.9%	13%	u
> O=C(CSc1nnnn1C1CC1)N1CCN(c2ccc(O)cc2)CC1
    x	3.1%	6%	x
> Cc1ccc(NS(=O)(=O)c2ccc3c(c2)n(C)c(=O)n3C)cc1
    x	0.1%	-1%	3%
> CCc1c(C)nc2c(-c3ccccc3)c(-c3ccccc3)[nH]n2c1=O
    x	-3.1%	3%	0%
> Cc1ccc(O)c(NC(=O)c2cc(-c3ccccc3)on2)c1
    x	-2.3%	7%	-74%
> CCc1ccc(NC(=O)Cc2ccc(NC3=NC4CS(=O)(=O)CC4S3)cc2)cc1 (stereo unspecified)
    x	-0.6%	15%	-10%
> C#CCOc1nc(OCC#C)nc(OCC#C)n1
    -12	2.6%	3%	2%
> O=C1[C@@H]2CSCN2C(=O)CN1Cc1ccccc1F
    x	0.2%	11%	-3%
> Cc1ccc(OCC(=O)Nc2cc(S(=O)(=O)N3CCOCC3)ccc2N2CCCC2)cc1
    x	1.8%	7%	x
> O=C(O)CC(c1ccc(C(F)(F)F)cc1)N1Cc2ccccc2C1=O (stereo unspecified)
    x	0.6%	5%	-2%
> CN(C)C(CNC(=O)CCc1nc2sc3c(c2c(=O)[nH]1)CCCC3)c1ccccc1 (stereo unspecified)
    x	1.9%	-18%	x
> O=C(c1cccc(C(F)(F)F)c1)N1CCN(CCc2ccccc2)CC1
    x	-1.0%	2%	0%
> COc1ccc(C)cc1-n1c(N)c(C#N)c(C#N)c1-c1ccc(OC)c(OC)c1OC
    -7	-3.6%	5%	-16%
> CCOC(=O)C1C(c2ccccc2)C(C(=O)OCC)S(=O)(=O)C(CCN(CC)CC)S1(=O)=O (stereo unspecified)
    -9	0.9%	-2%	-1%
> COc1cc(C(=O)N(C)C2CCCCC2)ccc1OC1CCN(C(C)=O)CC1
    x	-0.2%	u	1%
> O=C(Nc1ccc(S(=O)(=O)NC2=NCCCCC2)cc1)c1ccccc1Cl
    -3	-1.8%	-6%	0%
> Cc1cccc(/C=C2\Sc3ccc(C(=O)N4CCC(C)CC4)cc3N(C)C2=O)c1
    x	-2.3%	-7%	17%
> O=C(Nc1cccnc1)c1ccc(F)c(S(=O)(=O)N2CCOCC2)c1
    x	2.5%	12%	2%
> COC(=O)c1scc(C)c1NC(=O)Nc1ccccc1
    3	-0.3%	-1%	-8%
> COC(=O)c1ccc(S(=O)(=O)N2C3CCC2CC(NC(=O)C2CC2)C3)cc1 (stereo unspecified)
    -2	0.2%	-1%	-4%
> Cc1cccc(NC(=S)NNC(=O)CC(C)O)c1C (stereo unspecified)
    1	0.7%	5%	-4%
> CCc1cccc(C)c1N(C(=O)Cn1c(CO)nc2ccccc21)C(C)COC (stereo unspecified)
    -10	-1.3%	5%	-7%
> O=C(O)C1CC=CCC1C(=O)N1CCN(c2nc(-c3ccccc3)c3ccccc3n2)CC1 (stereo unspecified)
    0	u	u	-16%
> O=[N+]([O-])c1ccc(N2CCN(Cc3ccc4c(c3)OCO4)CC2)nc1
    x	-2.0%	1%	7%
> CC(OC(=O)C1CCN(S(=O)(=O)c2ccc(F)cc2)CC1)C(=O)NC1CCCCC1C (stereo unspecified)
    x	1.3%	14%	x
> NC(=O)c1ccc(Oc2ccc(-c3nnco3)cc2)c([N+](=O)[O-])c1
    x	5.3%	8%	2%
> COCCC(=O)N1CCC(Oc2ccc(C(=O)NCc3nccn3C)cc2)CC1
    x	-1.0%	8%	-5%
> Cc1ccc(CSCC(=O)N(C)CC(=O)Nc2c(Cl)cccc2Cl)cc1
    x	-4.2%	-7%	x
> Cc1nc2ccccc2c(=O)n1CCc1ccccc1
    x	u	-26%	-16%
> O=C(CCNC(=O)c1ccccc1)Oc1ccc([N+](=O)[O-])cc1
    -13	-2.8%	2%	0%
> O=C(C1CCC1)N1CCc2cc(S(=O)(=O)NCC3COc4ccccc4O3)ccc21 (stereo unspecified)
    -6	u	-7%	-1%
> COc1cc([N+](=O)[O-])ccc1-c1ccc(/C=N/NC(N)=O)o1
    -3	u	-27%	-8%
> Cc1ccc(C(=O)CC2(O)C(=O)N(C)c3ccccc32)o1 (stereo unspecified)
    -9	-2.6%	-13%	-1%
> NS(=O)(=O)c1ccc(NC=C2C(=O)OC3(CCCCC3)OC2=O)cc1
    -18	6.7%	5%	1%
> COc1cccc(-c2cc(C(=O)Nc3ccc(N(C)C(C)=O)cc3)c3cc(Br)ccc3n2)c1
    x	0.2%	5%	x
> Clc1ccc(CNC2CCCC2)cc1
    -2	-0.2%	10%	-4%
> O=S1(=O)N=C2CCCCCN2C(c2ccccc2)N1 (stereo unspecified)
    -5	u	-7%	-1%
> COC(=O)c1c(NC(=O)CCS(=O)(=O)c2ccccc2)sc2c1CCN(C)C2
    x	u	u	-2%
> O=C(NC(=S)Nc1ccc(Cl)cn1)C(c1ccccc1)c1ccccc1
    -7	-5.9%	-6%	-8%
> COc1ccc(OC)c(NC(=O)N2CCCC(C(=O)c3ccccc3OC)C2)c1 (stereo unspecified)
    4	-1.2%	15%	-12%
> O=C(NCc1ccco1)c1cc(-c2ccc3c(c2)OCO3)on1
    0	0.6%	u	-37%
> CC(=O)N1CCN(S(=O)(=O)c2cccc(C(=O)NNC(=O)COc3ccc(Cl)cc3C)c2)CC1
    x	3.4%	-10%	x
> CC1Nc2ncnc(N3CCOCC3)c2N(Cc2ccc(Cl)cc2)C1=O (stereo unspecified)
    x	1.3%	-5%	x
> CCC(=O)N1CCc2cc(S(=O)(=O)N3CCN(c4ccccc4Cl)CC3)ccc21
    x	-1.8%	-1%	-1%
> O=S(=O)(c1cc(C(F)(F)F)ccc1Cl)N1CCN(c2ccccn2)CC1
    -3	3.0%	4%	-5%
> CCc1nc2c(sc3nc4c(cc32)COC(C)(C)C4)c(=O)n1Cc1ccccc1
    4	-0.6%	1%	-5%
> O=C(COC(=O)/C=C/c1ccccc1)NCCNC(=O)COC(=O)/C=C/c1ccccc1
    x	-3.8%	-12%	x
> CCCCC(CC)C(=O)Nc1cc(C(=O)NCCC)ccc1N1CCC2(CC1)CC(c1cccc(Br)c1)=NO2 (stereo unspecified)
    x	-0.1%	1%	x
> C/C(Cc1ccccc1)=N\NC(=O)CNC(=O)c1ccc(Cl)cc1
    -4	-0.7%	-5%	0%
> CCOC(=O)c1sc(N(Cc2ccccc2)C(=O)COC(=O)c2ccc(O)cc2)nc1C
    -8	-2.1%	19%	30%
> COc1ccc(-c2ccc(=O)n(Cc3cccc(Cl)c3)n2)cc1
    x	-1.4%	0%	-9%

Other records:
Results follow in this order: GLA inh pH 4.5	Rango complex inh	Rango dissoc inh	miR-21 reporter
> CCSc1nn2c(=O)c3ccccc3nc2s1
    -23	2.0%	12%	-42%
> CCOC(=O)[C@H]1[C@H]2COc3cc(OC)ccc3[C@@H]2N2C(=O)CN(Cc3ccc(C)cc3)C(=O)[C@@]12C
    x	-2.2%	2%	x
> Fc1ccc(Nc2nc(Oc3ccccc3F)nc(N3CCCC3)n2)cc1
    -17	7.9%	-3%	-3%
> COC(=O)Cn1c(=O)oc2ccc(C)cc21
    1	1.1%	1%	0%
> COc1cccc(-n2c(SCC(=O)OC(C)C)nnc2-c2cccnc2)c1
    1	4.0%	1%	-6%
> COc1ccc(/C=C/C(=O)c2ccccc2)cc1Cn1nnc2ccccc21
    -4	-0.5%	11%	15%
> COC1=CC(=O)OC(C)(c2ccccc2)C1 (stereo unspecified)
    x	-1.4%	0%	x
> COCCN(C(=O)Nc1ccc(OC)cc1OC)C1CCN(C(C)=O)CC1
    6	-3.7%	0%	0%
> O=C(O)c1ccc(-c2ccc(/C=C3\NC(=O)N(Cc4ccc(Cl)cc4)C3=O)o2)cc1
    -4	u	u	3%
> O=C(O)CCC(=O)N1CCC[C@H]1C(=O)O
    6	-0.3%	1%	0%
> Cc1nn(C)cc1/C=N/NC(=S)Nc1ccccc1
    -3	-1.5%	13%	-38%
> CC(O)CCc1ccc(O)cc1 (stereo unspecified)
    4	2.5%	1%	0%
> Cc1ccc(S(=O)(=O)c2c[nH]c3cc4c(cc3c2=O)OCO4)cc1
    -4	x	x	-4%
> CCN(c1cccc(C(F)(F)F)c1)S(=O)(=O)c1ccc2c(c1)CCN2C(C)=O
    -14	0.7%	-17%	26%
> C/C(=N\NC(=O)CNC(=O)c1ccc2c(c1)OCCO2)c1ccco1
    -2	0.7%	12%	-6%
> CC1CC(C)CN(C(=O)c2ccc(S(=O)(=O)N3CC(C)CC(C)C3)cc2)C1 (stereo unspecified)
    x	-0.1%	-1%	6%
> COC(=O)c1cc(OC)c(OC)cc1-n1cnc2cc(OC)c(OC)cc2c1=O
    3	-4.2%	38%	-4%
> COc1ccccc1C1=NN(C(=S)Nc2ccccc2)C(c2ccco2)C1 (stereo unspecified)
    -15	0.3%	0%	-27%
> Cc1ccc(-c2ccc([C@H]3[C@@H]4C=CCC[C@@]4(C)C(=O)N3Cc3ccccc3)c(F)c2)cc1
    -1	7.7%	21%	2%
> Cc1ccc(SCC(=O)N=C2NC(=O)CS2)cc1
    -5	u	-18%	-3%
> Cn1c(Cl)nc2c1c(=O)n(Cc1cccc(Br)c1)c(=O)n2C
    -5	-5.2%	-22%	1%
> CCCN1CCC(NC(=O)Nc2ccc(OC)c(OC)c2)CC1
    -5	-1.2%	-5%	-5%
> CCc1ccc(-c2nc(CN3CCC(C(=O)NCCc4ccc(OC)c(OC)c4)CC3)c(C)o2)cc1
    -5	-0.6%	4%	7%
> CC(C)CC(=O)Nc1c2c(nn1-c1ccc(F)cc1)CSC2
    7	7.1%	-13%	-4%
> CCOc1ccc(S(=O)(=O)NCC(=O)NC2CCCCC2)cc1
    x	u	1%	x
> Cc1ccc(C(=O)COc2cc(C)nc3nncn23)cc1
    -2	0.3%	-1%	0%
> O=S(=O)(NC1CCCC1)c1cc(F)ccc1F
    x	2.4%	-19%	0%
> COc1ccc(NC(=O)CSc2nnc(N)s2)c([N+](=O)[O-])c1
    1	2.2%	-1%	-12%
> O=C(c1noc2c1CCCC2)N1CCCC(N2CCN(c3ccccc3F)CC2)C1 (stereo unspecified)
    x	-0.4%	2%	1%

4 entries from above, bar-delimited.
mol | GLA inh pH 4.5 | Rango complex inh | Rango dissoc inh | miR-21 reporter
CCCN1CCC(NC(=O)Nc2ccc(OC)c(OC)c2)CC1 | -5 | -1.2% | -5% | -5%
CC(C)CC(=O)Nc1c2c(nn1-c1ccc(F)cc1)CSC2 | 7 | 7.1% | -13% | -4%
CCOc1ccc(S(=O)(=O)NCC(=O)NC2CCCCC2)cc1 | x | u | 1% | x
CCc1ccc(-c2nc(CN3CCC(C(=O)NCCc4ccc(OC)c(OC)c4)CC3)c(C)o2)cc1 | -5 | -0.6% | 4% | 7%

A portion of the library; rates above refer to the full screens.
